Assay outcomes deposited in PubChem BioAssay by several laboratories.
HNF4A DNA FP – change in binding of human HNF4 alpha to DNA; P41235; HNF4a-FITC DNA binding, fluorescence polarization, 1 h; activity change, % at 10 µM; 360,000 compounds, 0.3% hits; AID 1224865; in the data active = activity change above about 30%, passing the limit was not always enough;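 note: controls were the assay level and a saturating level of protein; the project sought stronger binding though the title names inhibitors; some compounds called inactive have numbers as strong as hits; positive values seem to mean higher polarization but the record does not say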
Target sequence (P41235 whole entry, looked up): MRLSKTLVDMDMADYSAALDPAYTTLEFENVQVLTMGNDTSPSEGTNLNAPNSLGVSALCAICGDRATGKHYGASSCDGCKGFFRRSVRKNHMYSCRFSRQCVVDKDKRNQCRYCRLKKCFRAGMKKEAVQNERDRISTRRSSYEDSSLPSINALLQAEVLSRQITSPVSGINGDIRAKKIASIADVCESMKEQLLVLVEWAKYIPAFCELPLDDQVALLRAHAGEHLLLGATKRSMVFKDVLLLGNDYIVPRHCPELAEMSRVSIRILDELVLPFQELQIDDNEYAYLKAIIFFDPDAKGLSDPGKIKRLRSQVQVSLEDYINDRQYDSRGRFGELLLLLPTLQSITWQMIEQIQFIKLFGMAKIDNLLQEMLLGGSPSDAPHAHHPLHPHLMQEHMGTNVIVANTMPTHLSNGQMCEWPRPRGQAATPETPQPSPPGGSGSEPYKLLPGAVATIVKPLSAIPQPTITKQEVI
E coli growth – E. coli growth inhibition; 330,000 compounds, 0.21% hits; OD600 absorbance (no concentration beside the values); AID 1053175; Escherichia coli growth, OD600, 23 h; hits give low values;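 active = OD600 absorbance below the run mean of sample wells minus 3.6 SD, in any replicate, cut at about 0.56 in these data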;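 note: stock transfer was 300 nL into about 60 µL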
Beta2AR agonist – agonists of human beta-2 adrenergic receptor inducing internalization | Am2.2-beta2AR cells, FAP receptor internalization, flow cytometry; reference of the scale not given here | response, % (no concentration beside the values) | 340,000 compounds, 0.43% hits;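 active = response above a set limit, near 3 SD of response in nonfluorescent compounds, cut at about 42% in these data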;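 note: stock transfer was 100 nL into about 11 µL; a reference agonist was the positive control; negative values mostly stem from fluorescent compounds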
ALR H2O2 inh – human ALR oxidase inhibition via reduced H2O2 | P55789 | inhibition, % (test concentration not listed) | 290,000 compounds, 3.8% hits | purified ALR, DTT oxidation, H2O2 HRP-luminol luminescence | AID 485317;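 active = mean and each replicate at 75% or more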;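 note: stock transfer was 7.5 nL into about 7.5 µL; 0% = neutral wells and 100% = wells with inactivated enzyme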
Target sequence (P55789 whole entry, looked up): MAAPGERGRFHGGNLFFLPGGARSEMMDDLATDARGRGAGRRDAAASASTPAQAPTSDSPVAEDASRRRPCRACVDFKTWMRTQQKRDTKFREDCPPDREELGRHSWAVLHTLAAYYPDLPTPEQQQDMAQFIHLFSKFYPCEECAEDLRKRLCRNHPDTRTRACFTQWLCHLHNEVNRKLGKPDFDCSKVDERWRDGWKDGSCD
LANA-H2A inh – blocks KSHV LANA binding to histone H2A/H2B | Q9QR71 | inhibition, % (concentration not given with the values) | 320,000 compounds, 0.6% hits | cell-free LANA-H2A/H2B peptide, fluorescence polarization | AID 2629; in the data active = inhibition mostly above about 10%, no sharp cut-off; inactive = mostly below about 6.7%;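 note: stock transfer was 7.5 nL into about 10 µL; 0% = median of vehicle wells and 100% = median of positive control wells; one replicate is shown; the record names a cut of 25% in any replicate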
UCH37 DUB inh – human UCH37 deubiquitinating enzyme inhibition; Q9Y5K5; purified proteasome/UCH37, Ub-AMC cleavage fluorescence; inhibition, % (no concentration beside the values); 330,000 compounds, 0.33% hits; AID 588478;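 active = mean of two replicates above 20%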;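 note: 0% = compound-free wells with enzyme and 100% = wells lacking proteasome; stock transfer was 100 nL into about 20 µL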
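Test system – human UCH37 enzyme supplied as purified proteasome complex · Incubation – 30 min preincubation with enzyme, 25 min cleavage at room temperature · Detection – AMC fluorescence from Ub-AMC cleavage, excitation 355 nm, emission 460 nm · Benchmarks – no-proteasome wells (full inhibition) and compound-free wells (no inhibition)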
FGF22 binding – shifts melting point of recombinant human FGF22 | 340,000 compounds, 1.5% hits | recombinant FGF22 thermal shift, SYPRO orange fluorescence; percent of sucrose octasulfate shift, DMSO zero | Q9HCT0 | calls only at 9.99 µM;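 active = melting point raised past a set limit in the mean and every replicate; three in four hits are not shown here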
Target sequence (Q9HCT0 whole entry, looked up): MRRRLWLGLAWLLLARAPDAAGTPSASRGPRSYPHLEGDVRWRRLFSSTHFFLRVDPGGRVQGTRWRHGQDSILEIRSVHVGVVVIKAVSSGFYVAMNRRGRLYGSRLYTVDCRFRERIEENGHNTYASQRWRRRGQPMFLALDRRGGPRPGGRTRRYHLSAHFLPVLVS
* marks the source's active call; other numbers are inactive results; i = inactive; · = not tested or not shown. This is a subset; count on the stated rates, not on these rows.

Structure	HNF4A DNA FP	E coli growth	Beta2AR agonist	ALR H2O2 inh	LANA-H2A inh	UCH37 DUB inh	FGF22 binding
O=C(NCCCN1CCCC1=O)c1cc(S(=O)(=O)N2CCOCC2)ccc1Cl	1.2	0.71	7	-3	1.4	-1.6	i
Cc1ccccc1CN1CCN(CC(=O)NCc2ccco2)C1=O	1.1	0.8	12	4	0.9	1.3	·
CC(C)(C)c1nnc(NC(=O)COc2ccc3c(c2)OCO3)s1	-1.8	0.68	1	-29	-0.5	4.4	i
N#CC1=C(N)Oc2cc(N)ccc2C1c1cc(Br)cs1 (stereo unspecified)	17	0.61	-7	18	-1.7	2.8	i
Cc1ccc(C(=O)COC(=O)C2C3C=CC(C3)C2C(=O)OCC(=O)c2ccc(C)c(C)c2)cc1C (stereo unspecified)	-1.6	0.73	-3	15	-3.6	3.4	·
CCOC(=O)c1cc(-c2ccco2)nc2c1c(C)nn2CCC#N	1.3	0.75	1	72	-3.1	-238	·
Cc1ccc(S(=O)(=O)N2CCOCC2)cc1NC(=O)COC(=O)/C=C/c1ccc(F)cc1	2.2	0.68	2	-3	-0.1	4.1	i
Cc1cnc(NS(=O)(=O)c2ccccc2)c(Br)c1	6.7	0.64	-2	-2	1.9	2.9	i
O=C(CN1C(=O)C2C3C=CC(C3)C2C1=O)OCC(=O)c1ccc(Cl)cc1 (stereo unspecified)	1.8	0.73	-4	·	·	5.1	i
Cn1c(CCCNC(=O)c2ccco2)nc2ccccc21	-2.3	·	-1	·	·	·	i
CC1=C(C(N)=O)C(c2cccs2)n2ncnc2N1 (stereo unspecified)	3.4	0.72	-5	-3	-5.0	4.0	i
COc1cc(/C=N/NC(=O)CCn2nc(C)cc2C)ccc1O	-1.5	·	-6	·	4.9	·	i
O=C(COC(=O)c1c[nH]c(=O)[nH]c1=O)NCc1ccccc1	1.3	0.67	1	0	2.1	2.9	·
CC(=O)Nc1ccc(S(=O)(=O)Nc2ccc(N3CCOCC3)cc2)cc1	-1.1	0.75	-2	82*	-1.1	-1.3	·
CCCCn1c(-c2nonc2NC(=O)c2ccccc2Cl)nc2ccccc21	8.2	0.64	-2	·	·	-12	·
CCOCCCNC(=O)CN1C(=O)/C(=C/c2ccccc2C)Sc2ccccc21	-2.3	0.74	-4	-1	0.7	1.7	·
CCOC(=O)c1cnn(-c2nc(OC)cc(OC)n2)c1C(F)(F)F	2.5	0.65	9	0	-6.0	8.2	i
COc1cc2nc(SCC(=O)NCCc3ccccc3)n(Cc3ccco3)c(=O)c2cc1OC	-0.7	0.72	0	-3	-2.7	0.9	·
CCN(CC)CCNC(=O)c1ccc(NC(=O)c2cn(-c3ccc(F)cc3)nc2-c2cccc(OC)c2)cc1	3.6	0.69	9	-48	2.1	2.7	i
CC(=O)NCCC(=O)Nc1nc(C)c(Cc2ccc3c(c2)OCO3)s1	-1.9	0.7	5	-8	3.0	-0.5	·
CCCn1ncc(CN2CCC(n3nccc3NC(=O)c3ccccc3Cl)CC2)c1C	-1.3	0.69	-2	-3	3.6	0.6	i
COc1ccc(CCNC(=O)COc2ccc(C)nc2[N+](=O)[O-])cc1OC	1.6	0.7	-5	·	-2.2	0.3	i
COc1ccccc1CN1CC(C(=O)NCc2nc3ccccc3n2C)CCC1=O (stereo unspecified)	1.0	0.75	-5	-14	7.4	0.6	i
O=C(COc1ccc2ccccc2c1)NNC(=O)c1ccc([N+](=O)[O-])cc1	-8.4	0.72	-3	-1	-1.6	4.0	i
CC(=O)Nc1ccc(C(=O)N/C(=C\c2ccccc2)C(=O)Nc2cccc(C(=O)O)c2)cc1	5.2	0.71	0	-7	-12	5.8	i
CCOC(=O)CCCNC(=O)COC(=O)c1cc(C)cc(C)c1	3.9	0.73	-7	2	8.8	4.0	·
Cc1ccc(C(=O)Cn2c(=N)n(CCN3CCOCC3)c3ccccc32)cc1	0.0	0.63	-4	2	1.7	4.6	i
Cc1cccc(C)c1NC(=O)CCCSc1nc2ccccc2s1	6.2	0.69	-16	·	0.4	2.3	i
OCCC1CN(C2CCC2)CCN1Cc1ccc(F)c(F)c1 (stereo unspecified)	-9.2	0.62	11	·	2.5	-0.1	i
COc1ccc(S(=O)(=O)Nc2ccc3c(c2)n(C)c(=O)n3C)cc1C	0.1	0.65	-2	·	-5.0	1.3	i
Cc1ccc(NC(=O)C2CCCN(c3nccc(C)n3)C2)c(C)c1 (stereo unspecified)	-4.5	0.68	-19	1	1.5	-5.5	i
CC(C)Cn1c(SCC(N)=O)nnc1-c1cccc(S(=O)(=O)N2CCOCC2)c1	0.4	0.7	-1	0	1.5	-0.2	i
CCn1c(SCC(=O)N2CCC(C(N)=O)(N3CCCCC3)CC2)nc2ccccc2c1=O	1.3	0.76	-4	·	·	-5.5	·
CCCCc1nc(SCC(=O)Nc2ccc(S(N)(=O)=O)cc2)n[nH]1	0.7	0.77	-15	-7	0.5	2.5	·
COc1c(C)cc(C(=O)C2CCCN(Cc3cnc(N4CCOCC4)s3)C2)cc1C (stereo unspecified)	8.5	0.69	-1	-5	0.9	3.2	i
Cc1cc(C)cc(-n2ccnc2SCC(=O)Nc2nccs2)c1	-2.3	0.74	-12	-7	3.8	2.9	·
CC(=O)c1sc(NC(=O)Cc2c(F)cccc2Cl)nc1C	2.5	0.7	7	0	-2.0	0.5	i
Fc1cccc(NCc2ccoc2)c1	-2.5	0.72	-3	-6	1.3	2.9	·
Cc1ccc(-n2c(SCC(=O)NCc3ccco3)nc3nc4c(cc3c2=O)COC(C)(C)C4)cc1	0.9	0.68	-11	·	·	-0.5	·
NC(=O)CSc1nnc(C2CC2)n1-c1ccccc1	-1.2	0.69	8	-22	-5.1	-1.7	·
CCc1cccc(CC)c1NC(=O)COC(=O)/C(C#N)=C/c1ccc(OC)cc1	8.7	0.74	-6	-1	-5.0	1.4	i
Cc1ccccc1NC(=O)c1ccc2c(c1)OCCO2	-0.9	0.77	9	-1	-1.8	-3.3	·
Cn1cc(-c2ccccc2C(=O)O)c(=O)c2cc(Cl)ccc21	-4.0	0.69	6	·	1.5	-70	i
S=C(NCc1ccccc1)NCc1ccc2c(c1)OCO2	1.4	0.65	3	-2	6.6	3.3	·
COc1ccccc1CN(C)C(=O)c1ccccc1SCC(=O)N1CCCC1	-0.7	0.67	-2	23	7.4	-4.9	i
COCCCn1c(C(=O)NCCN2CCOCC2)cc2c(=O)n3ccccc3nc21	2.3	0.72	-13	0	-3.5	i	i
COCCn1c(C)cc(C(=O)CSc2nc3ccccc3c(=O)n2C(C)COC)c1C (stereo unspecified)	3.6	0.65	10	-6	0.1	-2.0	i
CCN1C(=O)[C@H]2[C@@H](c3ccc(C)cc3)N3C(=O)N(c4cccc(Cl)c4)C(=O)[C@@]3(Cc3ccccc3)[C@H]2C1=O	2.8	·	-7	-8	4.2	-1.2	i
COc1ccc(-c2cc3c(=O)n(CC(=O)NCCCN4CCC(N5CCCCC5)CC4)ncn3n2)cc1	2.6	0.67	2	-3	1.5	-38	i
O=C(c1ccccc1NS(=O)(=O)c1ccc(Br)s1)N1CCOCC1	-0.4	0.75	-12	-10	-1.8	-0.6	·

The results go on:
Structure	HNF4A DNA FP	E coli growth	Beta2AR agonist	ALR H2O2 inh	LANA-H2A inh	UCH37 DUB inh	FGF22 binding
COc1ccc(C(=O)Nc2sc3c(c2C(=O)NCc2ccco2)CCCC3)cc1OC	-1.9	0.71	13	-1	-3.6	-322	·
CCCCCCn1c(N2CCCC2)nc2c1c(=O)n(C)c(=O)n2C	0.6	0.63	-9	97*	1.8	2.6	i
CCCC(=O)Nc1ccc(N2CCOCC2)cc1	-1.9	0.63	-4	43	1.9	1.7	·
CCOC(=O)C1(CCc2ccccc2)CCN(C(=O)c2occc2C)CC1	-0.3	0.72	3	1	0.8	1.3	·
CC(/C=N/NC(=O)c1ccc(CN2c3cccc4cccc(c34)S2(=O)=O)cc1)c1ccccc1 (stereo unspecified)	3.7	·	9	-1	-8.6	·	·
Cc1cc(C)c2cc(CN(CCN(C)C)C(=O)Nc3ccccc3Cl)c(=O)[nH]c2c1	0.6	0.68	-4	0	-21	-5.2	i
CN(C)C(=O)Cn1cc(S(=O)(=O)Cc2ccccc2)c2ccccc21	3.8	0.7	-11	-6	-4.4	1.0	i
COc1ccc([N+](=O)[O-])cc1N(CC(O)CN1CCCCC1)S(=O)(=O)c1ccc(C)cc1 (stereo unspecified)	3.9	0.67	-2	·	-1.6	1.3	i
CC1CCCCN1C(=O)c1c(Cl)cnn1C (stereo unspecified)	5.5	0.64	0	-3	4.4	0.3	i
NC(=O)C1CCN(c2nc(-c3ccc(Br)cc3)cs2)CC1	3.0	0.69	17	·	·	-1.1	i
CSc1c(CC(=O)Nc2ccc(F)cc2)n(Cc2ccccc2)c2ccccc12	1.7	0.76	10	0	-0.4	-1.9	i
COc1ccc(S(=O)(=O)N2CCN(CC(=O)Nc3cc(OC)cc(OC)c3)CC2)cc1	1.0	0.69	3	10	0.9	0.4	·
CCCn1c(NC(=O)CN2C(=O)NC3(CCCC3)C2=O)nc2ccccc21	2.4	0.7	-3	-9	-7.6	3.1	i
CC(C)(C)NC(=O)CSc1nccn1Cc1ccccc1	-1.2	0.65	-2	5	3.5	3.7	·
C#CCSc1nnc(CNS(=O)(=O)c2ccc(Br)cc2)n1C	-1.1	0.72	-4	-5	-6.3	2.3	i
COc1cccc(NC(=O)Cn2nnc(C(=O)Nc3ccccc3)c2N)c1	0.0	0.66	9	-1	-3.3	-2.3	·
Cn1c(=O)n(C)c2cc([N+](=O)[O-])c(N3CCN(C(=O)C(C)(C)C)CC3)cc21	2.5	0.69	4	-22	5.1	8.3	i
Cc1cc(N2CCN(c3nc(-c4ccccc4)cs3)CC2)c2ccccc2n1	1.4	0.69	18	-1	0.3	4.1	i
